Compound activity: PubChem BioAssay, National Center for Advancing Translational Sciences (NCATS)
hNpr1 antagonist = Natriuretic polypeptide receptor (hNpr1) antagonism - Primary qHTS. Potency, µM (highest dose often 46.3 µM), without a hit: at the top dose activity change, negative = inhibition, usual class: inhibitors. 76,000 compounds, 1.6% hits. Atrial natriuretic peptide receptor 1 (Homo sapiens), P16066. HEK293 hNpr1 GloSensor cGMP, ANP-stimulated luminescence; active = well fitted inhibition curve with a large enough effect; inconclusive = small, poorly fitted or top-dose-only effect; inactive = no such curve, though single readings can be large or run the other way;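 note: nearly all actives have a fitted effect of over 60% in size; nearly all hits also lower the signal before the agonist is added; a reference antagonist and vehicle were the controls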
Target sequence (P16066 whole entry, looked up): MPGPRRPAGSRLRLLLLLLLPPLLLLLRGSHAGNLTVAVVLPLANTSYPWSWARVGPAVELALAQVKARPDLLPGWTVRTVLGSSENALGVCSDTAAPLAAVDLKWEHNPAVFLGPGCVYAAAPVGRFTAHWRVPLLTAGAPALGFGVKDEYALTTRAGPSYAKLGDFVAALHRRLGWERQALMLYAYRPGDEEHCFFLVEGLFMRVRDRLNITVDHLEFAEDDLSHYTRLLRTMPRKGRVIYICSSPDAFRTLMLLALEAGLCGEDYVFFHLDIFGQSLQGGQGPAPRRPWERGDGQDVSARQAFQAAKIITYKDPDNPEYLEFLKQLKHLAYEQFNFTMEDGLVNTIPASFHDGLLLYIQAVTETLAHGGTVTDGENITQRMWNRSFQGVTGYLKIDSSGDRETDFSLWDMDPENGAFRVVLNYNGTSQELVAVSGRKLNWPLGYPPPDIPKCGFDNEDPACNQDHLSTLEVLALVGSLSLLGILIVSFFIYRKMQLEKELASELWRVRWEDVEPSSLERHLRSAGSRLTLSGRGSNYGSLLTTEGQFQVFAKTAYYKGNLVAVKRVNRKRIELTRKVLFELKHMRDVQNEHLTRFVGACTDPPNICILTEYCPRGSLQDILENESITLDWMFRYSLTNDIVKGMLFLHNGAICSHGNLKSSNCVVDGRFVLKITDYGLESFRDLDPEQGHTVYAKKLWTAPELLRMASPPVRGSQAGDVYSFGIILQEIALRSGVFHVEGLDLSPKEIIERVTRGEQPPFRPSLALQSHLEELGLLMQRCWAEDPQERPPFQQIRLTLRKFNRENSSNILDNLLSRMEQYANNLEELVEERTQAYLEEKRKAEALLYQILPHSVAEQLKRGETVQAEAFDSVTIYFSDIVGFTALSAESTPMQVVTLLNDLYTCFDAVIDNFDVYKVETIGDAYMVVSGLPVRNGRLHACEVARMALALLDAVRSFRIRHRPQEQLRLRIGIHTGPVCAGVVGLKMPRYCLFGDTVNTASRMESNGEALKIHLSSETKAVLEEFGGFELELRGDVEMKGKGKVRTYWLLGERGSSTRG
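HEK293 cells stably expressing human Npr1 and cGMP GloSensor pGS-40F, loaded 2 h with 2% GloSensor reagent, given compound 30 min at room temperature. Luminescence read before and 20 min after 0.1 nM hNppA.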
An asterisk follows results filed as active; ? = inconclusive; [ ] = dose if it differs, or a comment. % is set by controls: 0 for no effect and ±100 for the full control effect; potency is the fitted concentration of half-maximal effect.

SMILES | hNpr1 antagonist
CN(C(=O)C1CC1)C1CCc2ccccc21 (configuration not stated) | 10%[70.6 µM]
Nc1nc(C2CC(NC(=O)Cn3cnc4ccccc4c3=O)C2)cc(=O)[nH]1 (configuration not stated) | 2%
CCc1noc(-c2cn(C3CCN(C(=O)c4cccs4)C3)nn2)n1 (configuration not stated) | -13%
Cc1cc(C(=O)N2CCOC[C@H](Oc3ccc(C(F)(F)F)cc3)C2)n(C)n1 | 4%[70.6 µM]
COc1ccc(-c2cnc(Nc3cccc(N[S+](C)(=O)[O-])c3)c3c2CCO3)cn1 | 0%[70.6 µM]
COc1ccc(-c2cn(C)c(=O)n3cc(CN(C)C)nc23)c(C(F)(F)F)c1 | -4%[70.6 µM]
CC(C)(Oc1nn(CC2CCOCC2)c2ccccc12)C(=O)NCCc1cccnc1 | 1%[70.6 µM]
CC(C)c1cc(C(=O)NC(C)c2ccccc2-n2cccn2)nc2ncnn12 (configuration not stated) | -11%
COCCn1ncc(N2CCC(C(=O)N3CCN(CC(=O)Nc4ccc(C)cc4)CC3)C2)cc1=O (configuration not stated) | 5%
CCc1cc(=O)n(CC(=O)Nc2cc(Cl)ccc2C)c(N2CCOCC2)n1 | -4%
COc1ccc(Nc2cccc(CN3CCCC(C)(NC(C)=O)C3)c2)cc1 (configuration not stated) | -18%[70.6 µM]
COc1cccc(S(=O)(=O)N2CCCC(Cn3c(C)nc4cccnc43)C2)c1 (configuration not stated) | -20%
CC(C)S(=O)(=O)N1CCC2(CC1)NCCc1c2[nH]c2ccccc12 | 0%
Cc1ccc(NC(=O)N2CCCC(Cn3c(C4CC4)nc4cccnc43)C2)c(C)c1 (configuration not stated) | 0%
Cc1nnc(-c2cc(-c3ccc(CO)cc3)ccn2)n1Cc1ccncc1 | 1%[70.6 µM]
O=C(NCCc1ccc(Cl)cc1)c1nc2sccn2c1Br | 16%
O=C(CCn1ccn2nc3c(c2c1=O)CCCC3)Nc1ccc(F)c(F)c1 | -8%
O=C1CO[C@H](c2ccc(NS(=O)(=O)Cc3ccccc3)cc2)[C@@H](CO)N1C1CCOCC1 | 9%
COc1ccc(Nc2cc3c(cn2)NCCN(Cc2ccccc2)C3)cn1 | 0%[70.6 µM]
Cc1ccc(S(=O)(=O)N2CCc3nc4cc[nH]n4c(=O)c3C2)cc1C | 1%
COc1ccc(-c2onc(C)c2C(=O)NCc2ccc3c(c2)OCO3)cc1 | -6%
COc1ccc(C(=O)N2CCC3(CC2)C(OC)CN3c2cccc(F)c2)cc1F (configuration not stated) | 1%
c1ccc(CN2CCC[C@H]2c2nc(-c3ccc(N4CCOCC4)nc3)no2)cc1 | 3%[70.6 µM]
O=C(Nc1ccccc1)[C@H]1O[C@H](CCN2CCN(c3ccccn3)CC2)CC[C@@H]1O | 2%[70.6 µM]
COc1cc(CN2CCOCC2)ccc1OCC(O)CN1CCSCC1 (configuration not stated) | 3%
COCC(=O)NC[C@@H]1C=C(C)[C@H](Cc2nc3ccc(F)cc3[nH]2)C[C@H]1C(C)C | -15%[70.6 µM]
CN(CC1CCOC1)S(=O)(=O)c1ccc(F)c(Cl)c1 (configuration not stated) | -2%
COc1ccc(OC)c(NC(=O)C2CCc3ncc(-c4ccsc4)n3C2)c1 (configuration not stated) | -1%
Cc1ccc(C2=NC3(CCN(C(=O)c4cc(Cl)ccc4F)CC3)ON2)cc1 | -12%
O=C1CC(c2ccccc2)N(C(=O)CNC(=O)C2(c3ccccc3)CC2)CCCCCN1 (configuration not stated) | 4%
COc1ccc(-c2noc(-c3cccn3CC(=O)Nc3ccc(F)c(F)c3)n2)cc1F | -3%
Cc1ccccc1S(=O)(=O)N1CCCC(CCC(=O)NCCCn2cccn2)C1 (configuration not stated) | -7%
C=CCN(C)C(=O)[C@@H](C)C1CC[C@@]2(C)Cc3sc(CSc4ccccc4)nc3[C@@H](C)[C@@H]2[C@H]1O (some centres not stated) | -12%
COc1cccc(C2CNC(=O)c3nc(-c4ccc(C(=O)N(C)C)o4)[nH]c3C2)c1 (configuration not stated) | 4%
O=C(c1ccc2[nH]ccc2c1)N1CCC2(CC1)N=C(c1ccc(Br)cc1)NO2 | 11µM*
O=C(CCC1CCN(C(=O)c2ccccc2)CC1)Nc1cccc(Cl)c1 | -22%
Cc1nn(CC(=O)NC2CC(c3nnc(CN(C)C)n3C)C2)c(C)c1Cl (configuration not stated) | 0%
Cc1ccc(S(=O)(=O)NCCn2c(C)cnc2C2CCC2)c(C)c1 | -17%
O=C(NC1CCCC1)c1cccc2c1CCN2S(=O)(=O)c1ccccc1F | ?
CC(=O)NCc1ccc(-c2cc(NC3CCCC3)nc3[nH]ccc23)nc1 | 6%
c1cc(-c2cnc([C@@H]3COCCN3C3CCCCC3)[nH]2)ccn1 | -4%[70.6 µM]
Cn1nccc1C(=O)N1CCC(n2nccc2NC(=O)CCOc2ccccc2)CC1 | 0%
O=C(Cn1ccn2nc(-c3ccccc3)c(CO)c2c1=O)Nc1ccc2c(c1)CCC2 | -14%
O=C(Nc1ccc(Cl)cc1)N1CCC2(CC1)CCN(Cc1cccs1)c1ccccc1O2 | -2%
CN(C)C(=O)N1CCN(c2nc3ncccc3o2)CC1 | 11%[70.6 µM]
O=C(c1cc(-c2cccs2)[nH]n1)N1CCc2nc3cc[nH]n3c(=O)c2C1 | 4%
CN1C(=O)C2(CCN(S(=O)(=O)c3ccccc3)C2)c2ccccc21 (configuration not stated) | -1%[70.6 µM]
COc1ccc2c(C)c(-c3nc(C4CCOC4)no3)oc2c1 (configuration not stated) | 4%
C=Cc1cccc(CN2CCCC3(CCNC3)C2)c1 (configuration not stated) | -6%
COc1cccc(CN2CCOC3(CCN(Cc4ccc(OC)nc4)CC3)C2=O)c1 | -19%[70.6 µM]
Next structures follow.
SMILES | hNpr1 antagonist
O=C1NC2(CCCN(C(=O)c3ccccn3)C2)Oc2ccccc21 (configuration not stated) | 18%[70.6 µM]
Cc1ccccc1C(=O)N1CCc2c(nc3cc[nH]n3c2=O)C1 | 6%
Cc1cnc(CCNC(=O)c2n[nH]c3ccccc23)n1C1CC1 | -1%
COc1cccc(CN2CC[C@@H](CO)N(C)c3cccnc3C2)c1 | 2%[70.6 µM]
C[S+](=O)([O-])CCn1ncc2cc(OCC3CCN(CCC(F)(F)F)CC3)ccc21 | 0%[70.6 µM]
Cn1cc2c3c(cccc31)CN(C(=O)c1ccccc1F)CC2 | 3%
Cc1ccc([S+](=O)([O-])N2CC3(Cc4ccccc4N([S+](C)(=O)[O-])C3)C2)cc1 | -25%
O=C1CCC2(CCN(C(=O)c3cccs3)CC2)CN1CCc1ccncc1 | -1%
Cc1ccccc1NC(=O)Cn1nc2c(cc1=O)CCCCC2 | -2%
COc1ccc(S(=O)(=O)N2C[C@@H](F)C[C@H]2C(=O)N2CCCCC2)cc1OC | -9%

Rewritten in CSV form: 2 of the compounds above.
Molecule,hNpr1 antagonist
COc1cccc(S(=O)(=O)N2CCCC(Cn3c(C)nc4cccnc43)C2)c1 (configuration not stated),-20%
CC(C)S(=O)(=O)N1CCC2(CC1)NCCc1c2[nH]c2ccccc12,0%

Further results.
SMILES | hNpr1 antagonist
O=C(O)C1(O)CCN(c2ncc(F)c(N3CCOCC3)n2)CC1 | -2%
O=C(Nc1ccccc1F)N1CCCC(Cn2c(C3CC3)nc3cccnc32)C1 (configuration not stated) | 4%
Cc1ccc(C(=O)N2CCC(N3CCCCCC3=O)CC2)cc1 | 1%[70.6 µM]
N#Cc1ccc(C(=O)N2CCC(n3cc(-c4nc(C5CC5)no4)nn3)C2)cc1 (configuration not stated) | ?
Cc1nc2cccnc2n1CC1CCCN(S(=O)(=O)c2ccc3c(c2)OCCO3)C1 (configuration not stated) | -24%
COc1ccc(-c2ccc(C(=O)N[C@H](c3ccccn3)C3CC(O)C3)o2)cc1 (some centres not stated) | 6%
O=C1N(C2CCCCC2)C[C@H]2CN(S(=O)(=O)c3ccccc3)CCN12 | 4%[70.6 µM]
COc1cc(NC(=O)N2CCCC(Cn3cnc4cccnc43)C2)cc(OC)c1 (configuration not stated) | -5%
Cc1ccc(-n2c(C3CCN(C(=O)c4ccc(F)cc4Cl)CC3)n[nH]c2=O)cc1 | -14%
CNC(=O)c1cccc(-c2cnc3[nH]cc(CC(=O)NC4CCC4)c3c2)c1 | 2%[70.6 µM]
CCN1C(=O)Cc2ccccc2C1C(=O)NCc1ccccc1C (configuration not stated) | -11%
Cc1noc([C@@H]2CN(Cc3ccccc3F)C[C@H]2CO)n1 | 0%
O=c1cc(N2CCOCC2)oc2c(Nc3ccccc3)nccc12 | 2%[70.6 µM]
COCCN1CCC(N2CCN(S(=O)(=O)c3ccccc3Cl)CC2)C1=O (configuration not stated) | 3%
COc1ccc(NC(=O)N2CCCC(Cc3noc(-c4cnccn4)n3)C2)cc1 (configuration not stated) | 15%
COc1cc2c(cc1OC)C(C[C@H]1CN(S(=O)(=O)c3ccc(C#N)cc3)CC[C@H]1CC(=O)O)=NCC2 | 2%
CC(C)NC(=O)C1c2ccccc2C(=O)N(Cc2ccco2)C12CCCCC2 (configuration not stated) | -1%
O=C(Cn1nc2c(cc1=O)CCCC2)NCCc1nc(-c2ccccc2)cs1 | -1%
COc1ccc(-c2cn(C)c(=O)n3cc(CN4CCN(C)CC4)nc23)cn1 | 3%[70.6 µM]
Cc1ccc(N2CCN(C(=O)CCc3ccnc(N4CCOCC4)c3)CC2)cc1 | -24%
CNC(=O)[C@@H]1C[C@@H](n2cc(CN(C)C(=O)Nc3ccc(C)c(C)c3)nn2)CN1 | 1%
O=C(Cc1ccsc1)N1CCCC1c1nc(C2CCOCC2)no1 (configuration not stated) | 12%
O=C(Nc1cccnc1)c1ccc2c(c1)OCCN(c1cccc(OC(F)(F)F)c1)C2 | ?
COCCN1CCC2(CCC1=O)CN(C(=O)c1ccco1)CCN2C (configuration not stated) | -17%
COCCC1(CO)CCCN(c2ncc(F)c(N3CCCC3)n2)C1 (configuration not stated) | 0%
CCC(C)(C)C(=O)N[C@@H]1CN(c2ccncn2)C[C@H]1CO | 1%
CN(Cc1cccc(-c2nn[nH]n2)c1)C(=O)C1CCCN(CC(N)=O)C1 (configuration not stated) | 3%
Cc1cnn(CCC(=O)N2C[C@@H](CO)[C@H](c3nc(C4CC4)no3)C2)c1 | 2%
CCN1CCN(C(=O)c2ccc(N3CC4CC(C3)[C@H]3CCCC(=O)N3C4)nc2)CC1 (some centres not stated) | -1%
O=C(NC[C@H]1COCc2nc3cc(F)ccc3n21)c1ccccc1 | 4%[70.6 µM]
Cc1ccc(NC(=O)CN2C(=O)NC(c3ccccc3Cl)C3=C2COC3=O)cc1C (configuration not stated) | -18%
Cc1nn(C)c2ncnc(N3CCC4(C3)C(=O)N(CC(N)=O)c3ccccc34)c12 (configuration not stated) | 4%
O=C1CCN(C(=O)c2ccccc2)CCCC(C(=O)NCCCc2ccccc2)CCN1 (configuration not stated) | 7%
COc1ccc(C(=O)N2CCN(C(=O)c3nnn4c3COC(c3ccc(Cl)cc3)C4)CC2)cc1 (configuration not stated) | -12%
Cc1cc(C)n(CCC(=O)N2C[C@@H](CO)[C@H](c3nc(C4CC4)no3)C2)n1 | -5%
FC(F)(F)c1cccc(CCC2CCCN(Cc3cccnc3)C2)c1 (configuration not stated) | 0%
CCOCCOC1CCN(C(=O)c2cccc(F)c2)CC1 | -1%
CCOC(=O)c1cn(C2CN(S(=O)(=O)c3cccc(F)c3)C2)nn1 | -11%
Cc1ccc(C(=O)N2C[C@@H](Oc3ccccc3)C[C@H]2C(=O)N2CCCC2)cn1 | 0%
CCCNC(=O)N1CCCC(c2nc(C3CCOCC3)no2)C1 (configuration not stated) | 15%
OCc1cccc(-c2cc(-c3cccnc3)c3cncn3c2)c1 | -11%[70.6 µM]
O=C(NC1CCCCC1)N1Cc2[nH]cnc2C[C@H]1c1nc(-c2ccc3ccccc3c2)no1 | 0%
COc1cccc(CC(=O)NCc2nnc3cc(-c4nc(C5CC5)no4)ccn23)c1 | ?
Cc1cc2nc3n(c(=O)c2n1CC(=O)NCCc1ccc(Cl)cc1)CCCC3 | -4%
CS(=O)(=O)c1ccc(CN2CCCC(c3ccccc3)C2)cc1 (configuration not stated) | 5%
O=C(NCc1ccccc1)c1csc(N2CCN(c3ccc(Cl)cc3)CC2)n1 | 11µM*
Cc1cc(C)n(-c2cccc(-c3nc(C4CCOC4)no3)c2)n1 (configuration not stated) | 5%

Gathered by group: the compounds so far with a Cl atom.
SMILES | hNpr1 antagonist
CCc1cc(=O)n(CC(=O)Nc2cc(Cl)ccc2C)c(N2CCOCC2)n1 | -4%
O=C(NCCc1ccc(Cl)cc1)c1nc2sccn2c1Br | 16%
CN(CC1CCOC1)S(=O)(=O)c1ccc(F)c(Cl)c1 (configuration not stated) | -2%
Cc1ccc(C2=NC3(CCN(C(=O)c4cc(Cl)ccc4F)CC3)ON2)cc1 | -12%
O=C(CCC1CCN(C(=O)c2ccccc2)CC1)Nc1cccc(Cl)c1 | -22%
Cc1nn(CC(=O)NC2CC(c3nnc(CN(C)C)n3C)C2)c(C)c1Cl (configuration not stated) | 0%
O=C(Nc1ccc(Cl)cc1)N1CCC2(CC1)CCN(Cc1cccs1)c1ccccc1O2 | -2%
Cc1ccc(-n2c(C3CCN(C(=O)c4ccc(F)cc4Cl)CC3)n[nH]c2=O)cc1 | -14%
COCCN1CCC(N2CCN(S(=O)(=O)c3ccccc3Cl)CC2)C1=O (configuration not stated) | 3%
Cc1ccc(NC(=O)CN2C(=O)NC(c3ccccc3Cl)C3=C2COC3=O)cc1C (configuration not stated) | -18%
COc1ccc(C(=O)N2CCN(C(=O)c3nnn4c3COC(c3ccc(Cl)cc3)C4)CC2)cc1 (configuration not stated) | -12%
Cc1cc2nc3n(c(=O)c2n1CC(=O)NCCc1ccc(Cl)cc1)CCCC3 | -4%
O=C(NCc1ccccc1)c1csc(N2CCN(c3ccc(Cl)cc3)CC2)n1 | 11µM*

These rows are one share of the data (hit frequency here may not be typical).
